Compound activity: PubChem, several laboratories
eIF4H FP inh: inhibitors of RNA binding by human eIF4H. eIF4H fluorescence polarization binding assay. inhibition, % at 35 µM. hit rate 0.94% among 290,000. AID 2012;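 active = 50% or more with normal probe brightness, or confirmed in later tests; about a fifth of its hits are not listed in these tables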;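 note: calls also rest on retests at 20 µM and on dose response follow-up; 0% = protein and probe with vehicle and 100% = probe without protein; strong numbers were not always called active; many hits fall short of the cut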
CSC inhib: cancer stem cell inhibition. cancer stem cell-like cells viability, luminescence. inhibition, % at 7.5 µM. hit rate 1.1% among 300,000;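 active = mean at 75% or more and at least half the replicates too; tested in HMLE shEcad cells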;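 note: 0% = median of negative and 100% = median of positive control wells; the first replicate is given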
HIV Env fusion: blocks HIV Env-driven cell-cell fusion; HeLa-JRFL Env/CEM21 cell fusion, luciferase; inhibition, % at 12.3 µM; hit rate 1.1% among 360,000;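 active = mean replicate inhibition score of at least 50 and every replicate individually at or above 50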;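 note: 0% = plate neutral controls and 100% = maraviroc near 300 nM; one replicate is shown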
MT1-MMP act inh: inhibitors of human MT1-MMP activation; P50281; GFP/RFP ratio change, % at 20 µM; hit rate 0.061% among 360,000; HT1080 RFP-PRO-GFP cells, GFP/RFP ratio fluorescence, overnight; percent of plate control window, DMSO zero; AID 651647;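 active = GFP/RFP ratio change of at least 30% with cell ATP level not reduced by more than half and red fluorescence within 50% of control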; note: strong numbers were not always called active
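system = RFP-PRO-GFP reporter HT1080 cells | dosing = 20 µM single dose, 1% DMSO | timing = overnight cell settling, then overnight compound exposure, 37 °C, 5% CO2 | read-out basis = GFP/RFP fluorescence ratio | controls = DMSO and RFP-L50D-GFP cell wells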
UUG fidelity: modulators of start codon recognition fidelity in yeast; S. cerevisiae UUG-firefly luciferase reporter, luminescence/redox ratio; activity score, % at 18.7 µM; hit rate 0.13% among 350,000; AID 602363;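 active = replicate mean at a twofold rise or more, about +100% in these data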;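 note: firefly luciferase made from a UUG start codon reports start codon fidelity; reporter light over untreated wells divided by growth signal over untreated wells; some hits fall short of that in this replicate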
Rce1 inh: yeast Ras-converting enzyme inhibition; yeast membranes, quenched prenylated peptide cleavage fluorescence; AID 2563; hit rate 0.27% among 290,000; calls only; Q03530;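 active = fall in fluorescence gain of 50% or more versus controls, with final raw signal at or below 3038400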;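 note: plate controls were neutral control wells for no effect and wells lacking membranes for full effect; tested at 10 µM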
PABP FP inh: blocks human PABP binding to poly(A) RNA; P11940; fluorescence polarization; inhibition, % at 35 µM; hit rate 1% among 290,000;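 active = 50% or more with normal probe brightness, or confirmed in later tests; about a fifth of its hits are not listed in these tables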;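 note: calls also rest on retests at 20 µM and on dose response follow-up; controls were probe without protein and protein plus probe with vehicle; some compounds called inactive have numbers as strong as hits; many hits fall short of the cut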
Target sequence (P11940 whole entry, looked up): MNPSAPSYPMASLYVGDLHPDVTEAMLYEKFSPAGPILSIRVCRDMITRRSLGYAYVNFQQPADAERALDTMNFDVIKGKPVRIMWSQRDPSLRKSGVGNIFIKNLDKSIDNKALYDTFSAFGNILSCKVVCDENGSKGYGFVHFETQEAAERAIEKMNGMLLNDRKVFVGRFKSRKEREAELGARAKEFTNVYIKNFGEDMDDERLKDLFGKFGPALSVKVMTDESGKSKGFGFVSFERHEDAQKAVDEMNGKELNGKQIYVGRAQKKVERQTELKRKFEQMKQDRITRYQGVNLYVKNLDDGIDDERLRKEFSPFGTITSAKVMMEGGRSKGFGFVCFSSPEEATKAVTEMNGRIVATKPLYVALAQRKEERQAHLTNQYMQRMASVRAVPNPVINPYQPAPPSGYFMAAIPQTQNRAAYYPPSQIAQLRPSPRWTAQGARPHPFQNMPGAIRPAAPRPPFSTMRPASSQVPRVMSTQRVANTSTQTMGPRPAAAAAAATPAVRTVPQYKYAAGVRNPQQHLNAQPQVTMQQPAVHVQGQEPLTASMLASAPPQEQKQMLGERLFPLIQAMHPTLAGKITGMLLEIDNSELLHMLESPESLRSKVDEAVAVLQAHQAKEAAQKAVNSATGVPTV
eIF4H FP inh retest: recorded beside eIF4H FP inh, whose call it bears; inhibition, %; compound at 20 µM; confirmation average;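 mean of two retest wells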
PABP FP inh retest: further read-out of PABP FP inh, marked with its call; inhibition, %; compound at 20 µM; confirmation repeats;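 mean of two retest wells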
MT1-MMP act inh RFP: further read-out of MT1-MMP act inh, marked with its call; RFP signal change, %; measured here: RFP expression control read;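 0 = vehicle wells; hits needed this value within 50% of zero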
* marks the source's active call; other numbers are inactive results; i = inactive; x = no result given; + = active, no number; & = joins results of further samples; ! = not active in a repeat.

SMILES	eIF4H FP inh	CSC inhib	HIV Env fusion	MT1-MMP act inh	MT1-MMP act inh RFP	UUG fidelity	Rce1 inh	PABP FP inh	others
CC(=O)n1cc([C@H]2C=C(C(=O)N3CCOCC3)O[C@@H](OCCCCO)C2)c2ccccc21	x	-17	-4	-6	5	-8	i	x
Cc1ccccc1OCC(=O)NCCNC(=O)c1ccncc1	4	6	1	6	1	-13	i	8
CN1CCN(CC(=O)Nc2c(C#N)cnn2-c2ccccc2)CC1	-6	-6	-19	2	2	-18	i	-10
N/C(=N\N=C\c1ccc(O)cc1)c1nonc1N	-4	10	-90	1	1	x	i	8
NC(N)=NC(=O)c1nc(Cl)c(N)nc1N	-1	5&-3&-15	-9&-22	-2&1&-1	-3&0&1	-23&-32&-9	+!	6
CN(C)c1ccc(NC(=O)c2cccc(C(=O)Nc3ccc(N(C)C)cc3)n2)cc1	-3	8	-191	1	0	x	i	9
O=C(Cc1cccc(C(F)(F)F)c1)NCc1cccc(Cl)c1	-4	4	5	2	2	x	i	2
COc1ccc(-c2[nH]ncc2CN2CCCO2)cc1F	0	-5	11	8	5	x	i	-2
COc1ccc(C(=O)O/N=C(\N)c2ccccc2)cc1OC	-4	-6	-63	-4	-7	-1	i	-7
C[C@H](NC(=O)[C@@H]1CSC2c3ccccc3C(=O)N21)C(=O)NCCc1ccccc1 (stereo not given in full)	x	24	-9	-3	-1	-13	i	x
Cn1c(O)c(N=NC(=O)c2cccc(S(=O)(=O)N3CCCCC3)c2)c2ccccc21	1	23	17	4	0	1	i	-5
O=C(N/N=C/c1c[nH]c2ccccc12)c1ccccc1Cl	-4	7	2	-5	0	-8	i	-16
COc1cc(CN2CCC(n3nccc3NC(=O)C3CCOC3)CC2)ccc1F (stereo not given)	-6	1	0	-2	0	-18	i	-9
C[C@@H]1CN(C(=O)c2nc3ccc(Cl)cn3c2CN[C@H]2CCCCNC2=O)C[C@H](C)O1	0	-13	-13	2	2	x	i	0
O=C(Nc1cccc(S(=O)(=O)N2CCOCC2)c1)c1ccco1	6	-17	-3	3	5	-11	i	-10
CC(=O)c1cc2c(cc1NS(=O)(=O)c1ccccc1F)OCO2	-7	-8	-4	x	x	x	i	1
Cc1cccc2c(=O)c(-c3ccc(Cl)cc3)c(NC(=O)c3ccco3)oc12	-1	-3	9	-2	-7	-18	i	4
CC1(C)C(C=C(Cl)Cl)C1C(=O)N(Cc1ccc(Cl)cc1)C1CCS(=O)(=O)C1 (stereo not given)	-6	-6	x	-8	-10	-12	i	3
O=C(c1cccs1)n1cc(C(=S)N2CCOCC2)c2ccccc21	-1	6	-51	1	3	-25	i	4
CC(Cc1ccccc1)C(=O)N(C)Cc1ccccc1 (stereo not given)	-3	x	14	4	4	-8	i	2
COc1cc(/C=C(\C#N)c2[nH]nc(N)c2C#N)cc(OC)c1O	12	17	10	-129	-5	-10	i	3
CCC(=O)c1c[nH]c(C(=O)NCC2CCCO2)c1 (stereo not given)	0	-6	x	0	1	x	i	-2
CC(=O)Nc1ccc(S(=O)(=O)NCCC(=O)N2CCN(C(c3ccccc3)c3ccccc3)CC2)cc1	x	-2	-16	2	-4	-3	i	x
CCCc1nc(NC(C)=O)c(C#N)c(-c2ccco2)c1CC	-2	-5	28	-3	-1	-8	i	14
Cc1ncc(S(=O)(=O)c2ccc(Cl)cc2)c(N)n1	x	-7	12	-2	1	-18	i	x
CCOc1ccc2c(c1)-c1c(ssc1=S)C(C)(C)N2C(=O)CSC1=NCCS1	1	18	-35	-1	-10	13	i	1
O=S(=O)(Nc1cccc(S(=O)(=O)N2CCOCC2)c1)c1ccc(Cl)s1	-6	-10	-2	7	-4	-6	i	-3
O=C(/C=C/c1ccc(Cl)cc1)Nc1ccc(S(=O)(=O)Nc2ncccn2)cc1	-4	4	18	1	-5	x	x	-4
COC(=O)c1cc(=O)n(-c2ccccc2)c(=Nc2ccccc2)s1	1	46	-9	5	-8	25	i	-4
N#Cc1c(-c2ccccc2)nc(N2CCOCC2)[nH]c1=O	-5	4	x	0	4	-7	i	-6
CCOC(=O)c1ccc(NC(=O)N2C3CCCC2CC(NC(C)=O)C3)cc1 (stereo not given)	-11	-24	0	-2	2	-9	i	4
Nc1nc2c(ncn2[C@@H]2O[C@H](CNC(=O)[C@H](N)Cc3ccccc3)[C@@H](O)[C@H]2O)c(=O)[nH]1	x	x	-8	1	0	-18	x	x
O=C(NCCC1=CCCCC1)c1ccc(Cl)c(S(=O)(=O)N2CCOCC2)c1	-11	-19	43	1	-15	-19	i	-3
CC1C=Cc2ccccc2N1C(=O)c1ccccc1 (stereo not given)	8	-14	x	3	9	-5	i	-1
CC1CN(N=Cc2ccc([N+](=O)[O-])o2)C(=N)O1 (stereo not given)	x	x	0	1	-3	-10	x	x
CCOCCCNC(=O)c1cc2c(s1)-c1ccccc1SC2	3	4	-16	2	3	-9	i	10
Cc1ccc(C)c(-c2cc(C(=O)Nc3nccs3)c3ccccc3n2)c1	4	x	x	-4	-11	-10	i	0
CC(C)n1c(O)c(/C=C2\C=NN=C2c2ccccc2)sc1=S	-9	51	-14	-9	-12	x	i	7
O=C(NC1CCCCC1)c1ccc2[nH]c(=O)c(=O)[nH]c2c1	-4	-5	6	1	3	0	i	3
O=C(OCC(=O)c1cccs1)C1=COCCO1	-10	0	x	2	2	-30	i	-9
O=C(Nc1ccncc1)OCc1ccccc1	-1	-4	22	6	-3	1	i	11
N#CCN1CCN(CCC(=O)Nc2ccc(OCc3ccccc3)cc2)CC1	-9	28	x	2	1	-6	i	0
CCCNC(=O)OC[C@H]1O[C@H](CCO/N=C/c2ccc(C(=O)N3[C@H](c4ccc(C)cc4)[C@@H](C)CC[C@H]3C(=O)OC)cc2)C=C[C@@H]1Oc1ccc(OC)cc1	-14	-5	x	x	x	x	i	1
O=C(CCN=C1NS(=O)(=O)c2ccccc21)OCC(=O)c1ccc(F)c(F)c1	x	-9	3	-1	3	8	i	x
CNc1ccc(Br)cc(C(=O)/C=C/c2cccc(OC)c2OC)c1=O	23	23	-51	-6	6	-7	i	-6
COc1ccc(/C(N)=N/OC(=O)Cc2ccccc2OC)cc1	-4	-17	-39	-3	1	-2	i	-2
CCc1ccc(/C(C)=N/Nc2cc(Cl)nc(C)n2)cc1	7	x	x	-9	-4	-22	i	-16
Cc1ccc2nc(SCc3nc4c(cnn4-c4ccccc4)c(=O)[nH]3)[nH]c2c1	-10	3	x	-5	-28	x	i	6
COc1ccc(-n2c(SCC(=O)Nc3cc(C)on3)nc3c([nH]c4ccccc43)c2=O)cc1OC	5	-9	3	0	-1	-12	i	4
CCCC(=O)Nc1ccc(C(=O)NCC2CCCO2)cc1 (stereo not given)	-8	-1	-7	0	4	3	i	-6
Cc1cccc(NC(=O)c2ccoc2C)n1	2	1	x	-1	1	-2	i	-6
Cc1ccc(N(CC(=O)NC(C)(C)C)C(=O)CNC(=O)c2cccs2)c(C)c1	-10	5	0	-9	-3	x	i	-6
Nc1nonc1NC(=O)NN=C1CCCCC1	-3	-1	14	x	x	x	i	-18
N#Cc1c(NC(=O)COC(=O)c2ccc(F)cc2)sc2c1CCC2	12	2	x	3	3	-29	i	-6
CC1(C2CC(C(F)(F)F)n3nc(C(=O)O)cc3N2)CC1 (stereo not given)	1	x	0	-2	2	-13	i	10
CC(C)c1ccc(NC(=O)CSc2n[nH]c(=O)n2-c2ccc3c(c2)OCCO3)cc1	-8	1	40	-1	1	9	i	8
COc1ccccc1CNC(=O)C1(NC(=O)Nc2ccc(C)cc2)CCCCC1	18	-10	-26	-5	-1	-3	i	6
CN(C)c1ccc(C=Nc2ccccc2C(N)=O)cc1	-2	18	-191	1	1	-34	x	4
O=C(c1ccco1)N1CCN(Cc2nnc(-c3cccc(Cl)c3)o2)CC1	-1	6	-9	-1	2	6	x	6
CCN(CC)S(=O)(=O)c1ccc(N2CCOCC2)c(NC(=O)CCC2CCCCC2)c1	4	5	-7	8	1	-16	i	20

Two compounds drawn at random from the list so far, as already listed:
SMILES	eIF4H FP inh	CSC inhib	HIV Env fusion	MT1-MMP act inh	MT1-MMP act inh RFP	UUG fidelity	Rce1 inh	PABP FP inh	others
CC1(C2CC(C(F)(F)F)n3nc(C(=O)O)cc3N2)CC1 (stereo not given)	1	x	0	-2	2	-13	i	10
CCCC(=O)Nc1ccc(C(=O)NCC2CCCO2)cc1 (stereo not given)	-8	-1	-7	0	4	3	i	-6

(further entries)
SMILES	eIF4H FP inh	CSC inhib	HIV Env fusion	MT1-MMP act inh	MT1-MMP act inh RFP	UUG fidelity	Rce1 inh	PABP FP inh	others
COc1ccc(O)c(/C=C(\C#N)C(=O)Nc2ccccn2)c1	16	x	10	0	5	-23	i	10
Cc1cc(C)n(CCCO)c(=O)c1C#N	-2	2	6	0	0	-6	i	-5
Cc1ccc(NC(=O)Cn2cnc3c(NCc4ccccc4)ncnc32)cc1C	x	x	13	7	6	0	x	x
CN(C)CCNc1cnn(-c2ccccc2)c(=O)c1Cl	-6	-9	-2	-1	5	x	i	-2
COc1cc(C2C(C#N)=C(N)OC3=C2C(=O)CCC3)cc(OC)c1OC(=O)N1CCOCC1 (stereo not given)	12	-7	x	-1	4	-1	i	6
CO/N=C/c1ccc(OC)c(Oc2nc(OC)cc(OC)n2)c1	1	34	-6	1	-2	x	i	-2
CSc1ncc(C(=O)NCCCc2ccccc2)c(C)n1	-7	0	-1	-3	-2	-17	i	-5
COc1cc(OC)cc(C(=O)NCCSc2c[nH]c3ccccc23)c1	-6	2	33	-3	-2	15	i	0
COc1cccc(COC(=O)CSCC(=O)Nc2ccc(C)cc2)c1OC	x	x	4	-2	5	0	x	x
Oc1ccc(-c2onc3ccc(Cl)cc23)cc1	30	20	x	2	12	1	i	54	eIF4H FP inh retest=0;PABP FP inh retest=6
COc1cc2cc(CN(CCN3CCCC3)C(=O)Nc3ccc(F)cc3)c(=O)[nH]c2cc1OC	-4	-4	x	-2	4	3	x	-2
CCOC(=O)c1c(C)[nH]c(C(=O)COC(=O)CNS(=O)(=O)c2ccc(C)cc2)c1C	x	-1	50	0	4	-16	x	x
CC(=O)c1c(C)[nH]c(C(=O)OCC(=O)Nc2ncc(Cl)c(C)c2Cl)c1C	28	-12	-16	-9	-2	-16	x	27
CSCC[C@H](NC(=O)[C@@H]1Cc2ccccc2CN1)C(=O)Nc1cccc(C)c1	-6	5	-8	1	-2	x	i	8
Cc1ccc(Cn2nnc3c(=O)n(CC(=O)N4CCN(c5ccccc5)CC4)cnc32)cc1	1	-23	x	8	-9	3	i	3
O=C(Nc1ccc2c(c1)OCCO2)C1CCCN1S(=O)(=O)c1ccc(Cl)cc1 (stereo not given)	5	-9	-4	2	-1	5	i	11
COc1cccc2cc(S(=O)(=O)c3ccccc3)c(=Nc3ccc4c(c3)OCCO4)oc12	-4	27	7	-4	-4	x	i	1
O=c1cc(C(F)(F)F)nc(-c2cccnc2)[nH]1	4	-8	1	0	6	x	i	2
COc1cccc2cc(-c3ccccc3)c(=O)oc12	-5	x	-43	0	-2	1	i	-5
COCCCNc1ccn2nc(-c3ccc(CC(C)C)cc3)cc2n1	x	x	-185	18	-8	-13	x	x
NC(=O)CSc1nnc(-c2ccncc2)n1CCc1ccccc1	10	-3	-19	-1	3	173*	i	7
Cc1ccc(CSCC(=O)NCc2cccnc2)cc1	-2	-3	19	0	2	x	i	-7
Cc1ccc(C(=O)O/N=C2/CC3CCC2(C)[C@@]3(C)CBr)cc1 (stereo not given in full)	-1	-12	16	3	4	x	i	11
COc1cc(N=C(N)N=C(N)N)cc(OC)c1	2	x	4	2	0	-24	i	2
NS(=O)(=O)c1ccc(NC(=O)C(=O)NCCC(=O)O)cc1	-10	-10	-1	1	6	-7	i	-6
